Screening data as filed in PubChem.
PINK1 modulator – PINK1 expression modulation | Potency, µM (titrated, usually from 76.6 µM), inactives show at the highest dose activation (PINK1 increase), usual class: activators | 0.2% of 410,000 active | PINK1 immunofluorescence, high-content cytometry, 24 h | AID 624263; active = well fitted activation curve with a large enough effect; inconclusive = small, poorly fitted or top-dose-only effect; inactive = flat fitted curve, though single readings scatter; cell line not stated here;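 note: potency is the fitted concentration of half-maximal effect; % of control where 0% means no effect; nearly all actives have a fitted effect of over 65% in size; a mitochondrial uncoupler was the plate control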
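Measures PINK1 amount and localization on or inside mitochondria by immunofluorescence. Stable cells get compounds at 5 concentrations for 24 hours before fixation and staining; CCCP controls included.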
Sfp inh – Sfp phosphopantetheinyl transferase inhibition. Potency, µM, inactives show max response, negative = inhibition, usual class: inhibitors. AID 1490. Biochemical Sfp PPTase activity, qHTS. Q9F4F7. 3.5% of 310,000 active; active = well fitted inhibition curve with a large enough effect; inconclusive = small, poorly fitted or top-dose-only effect, or another doubt; inactive = no such curve, though single readings can be large or run the other way;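 note: the enzyme is Sfp with the accession as filed and its product quenches rhodamine fluorescence; potency is the fitted concentration of half-maximal effect; 0% = enzyme reaction without inhibitor and -100% = no enzyme wells; top concentration of the series not given in the record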
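Step 1, compound plus 15 nM Sfp-PPTase, 15 min, room temperature. Step 2, add rhodamine-CoA (5 uM) and BHQ-2-YbbR (12.5 uM). Step 3, read 525/598 nm fluorescence at 0 and 30 min.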
gsp antagonist – gsp mutant antagonism | Potency, µM (highest dose often 76.9 µM), for the others: at the highest dose activity change, negative = inhibition, most hits filed as inhibitors | gsp-mutant cells, cAMP HTRF, 30 min; control for the full effect not named in the record | 0.4% of 340,000 active | AID 624288; active = falling curve of any shape with a large fitted effect; inconclusive = falling curve, mostly with a smaller effect; inactive = flat or rising curve; cell line not stated here;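 note: intracellular cAMP measured with PDE inhibitor Ro 20-1724 present during compound exposure; potency is the fitted concentration of half-maximal effect; % is set by controls: 0 for no effect and ±100 for the full control effect; nearly all actives have a fitted effect of over 65% in size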
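G418-selected cells were plated in DMEM/10% FBS for 16-24 h at 37C, then treated with compounds plus the PDE inhibitor […] (300 uM solution added) for 30 min at 37C. Intracellular cAMP was measured by HTRF after 30 min lysis at room temperature.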
Menin-MLL FL inh – menin-MLL binding inhibition, fluorescein peptide; Fluorescence polarization, fluorescein-MLL peptide displacement from menin; FP activity change, % at 61.4 µM; 290,000 tested, under 10 active; inconclusive = falling polarisation curve, or a change in total fluorescence; inactive = total fluorescence flat and polarisation flat or rising; no compound was filed as active; the % refers to the polarisation; negative = inhibition;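 note: % of control where 0% means no effect; inhibitors lower the polarisation; unlabelled MLL peptide was the positive control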
gsp ag – agonists of gsp mutant (McCune-Albright syndrome). 0.13% of 340,000 active. AID 624287. gsp mutant cells, cAMP HTRF, 30 min; control for the full effect not named in the record. Potency, µM (top dose mostly 76.9 µM), without a hit: top-dose activation (cAMP increase), actives largely listed as activators; active = well fitted activation curve with a large enough effect; inconclusive = small, poorly fitted or top-dose-only effect, or another doubt; inactive = no such curve, though single readings can be large or run the other way; cell line not stated here;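 note: phosphodiesterase inhibitor Ro 20-1724 added with compounds to block cAMP breakdown; potency is the fitted concentration of half-maximal effect; nearly all actives have a fitted effect of over 60% in size; about a fifth of the inactives were tested at one dose only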
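Cells in DMEM/10% FBS with G418 were pretreated with compounds in DMSO plus […] (300 uM stock) for 30 min at 37C. cAMP was measured by HTRF (cAMP-d2 plus anti-cAMP antibody-K) after 30 min at room temperature.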
ClpP mod – qHTS Assay for Activators of ClpP; ATP-dependent Clp protease proteolytic subunit (Bacillus subtilis (strain 168)), P80244; purified B. subtilis ClpP, FRET peptide cleavage, 20 min; Potency, µM (series often up to 57.5 µM), for inactives: at the highest dose activity change, negative = active; 1.9% of 340,000 active; AID 651965, 2013; active = well fitted falling curve with a large enough effect; inconclusive = small, poorly fitted or top-dose-only effect; inactive = no such curve, though single readings can be large or run the other way; note: potency is the fitted concentration of half-maximal effect; the source files actives as falling curves though it sought activators and does not explain the sign; nearly all actives have a fitted effect of over 65% in size; many hits overshoot -100%
Target sequence (P80244 whole entry, looked up): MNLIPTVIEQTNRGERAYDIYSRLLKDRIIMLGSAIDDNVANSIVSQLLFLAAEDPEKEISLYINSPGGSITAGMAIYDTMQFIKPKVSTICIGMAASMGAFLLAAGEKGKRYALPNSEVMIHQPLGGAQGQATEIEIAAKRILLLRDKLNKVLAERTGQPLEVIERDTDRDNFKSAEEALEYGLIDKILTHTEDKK
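FRET quenching reversal measured ClpP activation: 10 microg/mL B. subtilis ClpP at pH 8 with the FRET-FV decapeptide, read at 430 nm after 320 nm excitation. The 20-min minus 0-min signal was scaled between DMSO/no-enzyme wells and ADEP (5.8 microM final).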
D2 agonist – agonists of human D2 dopamine receptor (beta-arrestin); P14416; activation, % (concentration not given with the values); DiscoveRx PathHunter D2 beta-arrestin, luminescence, 90 min; 100% = 57 uM dopamine signal; 0.084% of 360,000 active; AID 624465; in the data active = activation above about 40%; inconclusive = about 15% to 40%; inactive = below about 15%; note: compound concentration not given in the record; the text of the record calls up to 30% inactive
Target sequence (P14416 whole entry, looked up): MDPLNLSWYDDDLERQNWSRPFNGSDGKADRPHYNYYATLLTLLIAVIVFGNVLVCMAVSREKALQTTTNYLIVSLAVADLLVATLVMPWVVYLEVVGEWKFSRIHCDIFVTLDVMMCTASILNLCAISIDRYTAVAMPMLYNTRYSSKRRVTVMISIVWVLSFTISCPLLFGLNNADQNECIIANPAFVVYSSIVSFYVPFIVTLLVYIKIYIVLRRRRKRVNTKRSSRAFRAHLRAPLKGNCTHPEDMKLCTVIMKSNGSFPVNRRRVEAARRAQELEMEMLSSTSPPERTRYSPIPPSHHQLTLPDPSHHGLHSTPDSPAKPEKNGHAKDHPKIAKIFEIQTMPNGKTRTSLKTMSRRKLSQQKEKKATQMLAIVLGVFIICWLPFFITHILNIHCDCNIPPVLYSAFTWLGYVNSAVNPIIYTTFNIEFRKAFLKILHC
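Agonist mode: compounds alone added to overnight-plated D2 PathHunter cells for 90 min at 37 C, with 57 uM final dopamine (EC100) defining full response. Beta-arrestin recruitment detected by chemiluminescent reagent, read after 1 h at ambient temperature.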
Active calls of the source: *; u = inconclusive; x = no result given; & = joins results of further samples; [ ] = remark or other dose. Compounds were not picked by outcome, and some 5.1% of all compounds hit somewhere here.

Under each structure – PINK1 modulator	Sfp inh	gsp antagonist	Menin-MLL FL inh	gsp ag	ClpP mod	D2 agonist
> Cc1cc(NS(=O)(=O)c2ccc(NC(=O)c3ccccc3C)cc2)no1
  -1.4%	-1.8%	0.3%	-1.9	8.6%[15.4 µM]	x	-3.5
> CCCCn1c(N)c(N(CCOC)C(=O)C2CCN(C(=O)c3ccccc3C)CC2)c(=O)[nH]c1=O
  0.2%	x	6.1%	x	-7.6%[15.4 µM]	x	2.8
> COC(=O)[C@@H]1CCCN1Cc1c(C(=O)N2CCCCC2)nc2c(C)cccn12
  2.2%	25.5%	2.0%	-6.5	0.9%	x	-4.4
> CC1(C)CC(=O)C2=C(C1)c1c(ccc3ccccc13)NC2c1ccc(Br)o1 (stereo unspecified)
  -0.2%	20.1%	u	0.1	3.9%	12.6µM*	-0.3
> O=C(Cn1nc(C(F)(F)F)c2c1CCC2)N1CCN(c2ccccc2)CC1
  -1.0%[38.3 µM]	5.6%	8.6%	0.0	17.1%	0.3%	-1.4
> CC(NCC(c1ccco1)N1CCCCC1)C(=O)NC1CCCC1 (stereo unspecified)
  1.1%	0.9%	4.5%	-1.2	1.5%	x	-1.0
> COCc1c(Br)c(C)nc(OCC(=O)N/N=C/c2ccc(C)o2)c1C#N
  1.8%	8.6%	-12.2%	-7.3	13.7%	-1.0%	-4.9
> COCCNc1nc(Oc2ccccc2)c2sccc2n1
  0.4%	x	x	x	x	4.3%	4.2
> Cc1nc(SC(C)C)[nH]c(=O)c1Cc1ccccc1
  -0.7%	-13.4%	11.1%	1.1	-42.9%	-1.1%	3.1
> CCn1cc(C(=O)NCCCOC)c(=O)c2cc(S(=O)(=O)N(C)C3CCCCC3)ccc21
  3.1%	7.9%	-11.1%	0.6	-48.7%[inhibitor]	0.9%	10.9
> Clc1ccc(Nc2nc(-c3cccs3)cs2)nc1
  18.2%	u	-13.8%	2.3	-11.9%	-11.9%	-0.9
> CN(C(=O)c1ccc2c(=O)n3c(nc2c1)CCCCC3)c1ccccc1Cl
  2.0%	11.4%	2.7%	-3.0	-4.4%[15.4 µM]	x	-3.8
> COCCNC(=O)COC(=O)c1[nH]c(C)c(C(C)=O)c1C
  0.7%	15.3%	0.7%	-2.5	13.6%	-0.4%	-0.3
> CCc1ccc(OCC(=O)N/N=C(\C)c2ccc(O)cc2O)cc1
  2.8%	16.7%	-10.9%	0.9	-14.8%	x	-3.7
> COc1ccc2nccc(/C=C/c3ccnc4ccc(OC)cc34)c2c1
  u	0.2%	-17.7%	6.6	10.0%[15.4 µM]	x	7.6
> CC(=O)NC(=S)Nc1cccc(S(=O)(=O)NC2=NCCC2)c1
  1.5%	1.9%	10.3%	2.2	4.4%	-3.2%	-3.3
> Cc1nc(S(=O)(=O)Nc2ccc3c(c2)OCCO3)cn1C
  1.2%	10.3%	5.5%	0.2	30.3%[15.4 µM]	x	-19.9
> O=C(NCc1ccco1)/C(=C\C=C\c1ccccc1)NC(=O)c1ccco1
  -1.1%	-9.9%	3.2%	4.7	-2.1%	-4.6%	-7.7
> COc1cc(-c2nc3cnccn3c2Nc2ccc3c(c2)OCCO3)ccc1O
  3.2%	-9.9%	-8.4%	0.2	u	-4.3%	1.3
> COc1ccccc1N1CCN(C(=O)CCCC2=NS(=O)(=O)c3ccccc3N2)CC1
  3.5%	10.3%	-0.8%	-0.8	-64.8%[inhibitor]	0.6%	2.3
> CN(C)CCNc1ccc(-c2n[nH]c(=O)c3ccccc23)cc1[N+](=O)[O-]
  3.8%	16.7%	2.7%	-0.6	3.4%[15.4 µM]	x	-2.0
> CNC(=O)C(=O)NCC1OCCCN1S(=O)(=O)c1cccs1 (stereo unspecified)
  3.3%	6.0%	16.1%	1.4	-16.5%	1.3%	0.9
> COc1ccc(-n2nc(C(=O)NCC(=O)NCCCN3CCOCC3)c3ccccc3c2=O)cc1OC
  -1.1%	21.2%	32.6%[activator]	-2.6	52.2%[15.4 µM]	x	-1.7
> O=C(N/N=C\c1ccco1)Nc1cccc(Cl)c1
  7.2%	-28.6%	-1.0%	-0.6	-1.8%[15.4 µM]	x	-1.5
> O=C(CN1C(=O)c2ccccc2C1=O)Nc1sc2c(c1C(=O)NCC1CCCO1)CCC2 (stereo unspecified)
  2.0%[38.3 µM]	-3.9%	1.3%	2.6	u	0.0%	2.3
> Cc1ccc(-n2c(SCC(=O)N3CC(=O)Nc4ccccc43)nc3ccccc3c2=O)cc1
  0.9%	-3.7%	-19.6%	13.2	-8.0%	-6.7%	0.2
> Cn1cccc1/C=N/NC(=O)CNc1ccc2ccccc2c1
  -1.5%	10.2%	2.7%	2.9	10.5%[15.4 µM]	x	0.3
> CC(C)(C)C(=O)O/N=C(\N)Cc1ccc(-c2csnn2)cc1
  5.3%	-0.8%	5.6%	1.9	12.1%[15.4 µM]	x	0.0
> COc1ccc(CCNC(=O)c2ccc(Cl)cc2Cl)cc1OC
  3.9%	22.3%	-4.3%	3.5	-2.2%	0.2%	-5.1
> CCCOc1cccn2c(N(C)C(=O)c3ccccc3F)c(CC)nc12
  0.7%	x	x	x	x	1.5%	-5.6

The list goes on:
Under each structure – PINK1 modulator	Sfp inh	gsp antagonist	Menin-MLL FL inh	gsp ag	ClpP mod	D2 agonist
> OCCN(CC(O)Cn1ccc2ccccc21)CC(O)Cn1ccc2ccccc21 (stereo unspecified)
  3.5%	12.4%	1.5%	-0.5	-9.5%	-17.4%	8.4
> COc1ccccc1-c1nc(-c2cccc(C)c2)no1
  u	u	-8.9%	1.5	0.9%	-26.6%	-5.4
> Cc1ccc(/C(O)=C2\C(=O)C(=O)N(CC(C)O)C2c2cccc(F)c2)cc1 (stereo unspecified)
  0.6%	12.9%	20.8%	u	u	0.5%	-0.3
> N#Cc1c(C(F)(F)F)cc(-c2ccco2)nc1SCc1ccncc1
  1.9%	-4.2%	u	u	11.1%	25.1µM*	-7.8
> Cc1cccc(C)c1NC(=O)CSc1nc2[nH]c(=O)cc(O)c2s1
  -1.0%	x	0.4%	x	-1.5%	-3.8%	-3.8
> COc1ccc(/C=C2\CN(Cc3ccccc3)C/C(=C\c3ccc(OC)c(O)c3)C2=O)cc1O
  -1.3%	-17.5%	-9.0%	4.6	-39.0%[inhibitor]	4.5%	-4.5
> CCC(=O)c1c(NC)cc(C)oc1=O
  0.1%	-0.6%	7.6%	-3.8	25.3%[15.4 µM]	-7.7%	-3.7
> O=C1NC(=O)C2(CCCC2c2ccccc2)N1 (stereo unspecified)
  0.8%	x	7.9%	x	-4.3%[15.4 µM]	1.6%	-0.5
> CC(C)CCNC(=O)C1CCCCN1S(=O)(=O)c1ccc(F)cc1 (stereo unspecified)
  0.7%[38.3 µM]	-10.4%	-4.1%	-0.1	14.5%	0.3%	-0.6
> CCOC(=O)N1CCN(Cc2nc(N)nc(Nc3ccc(C)cc3C)n2)CC1
  5.8%	21.1%	16.0%	0.9	4.6%[15.4 µM]	x	-11.6
> COc1ccccc1/C=N/Nc1cc(C)nc2ccc(C)cc12
  1.7%	-0.1%	-17.8%	0.5	-38.9%[inhibitor]	x	0.6
> CCN(CC(=O)NCc1cccs1)C(=O)/C=C/c1ccc(OC)cc1OC
  16.4%	x	-2.6%	x	-44.3%[inhibitor]	-15.4%	2.1
> C=CC[C@@H](CC(=O)N[C@H](CO)Cc1ccccc1)C(=O)N[C@@H](COC(=O)[C@@H](CC=C)CC(=O)OC(C)(C)C)Cc1ccccc1
  -0.5%	x	-24.8%	x	x	1.9%	2.8
> CC(C)(C)NC(=O)/C(=C/c1ccco1)c1ccccc1
  -1.6%	u	1.9%	4.6	-33.0%[inhibitor]	0.0%	-2.6
> CCOC(=O)c1cc(S(=O)(=O)NC2CCN(C(=O)OCC)CC2)cn1C
  -1.8%	-10.5%	-4.1%	-1.6	0.2%	-4.2%	-0.1
> Cc1ccc(O)c(Sc2cc(C)ccc2O)c1
  11.1%	9.9%	-5.5%	3.0	-22.0%	-2.8%	4.2
> CC(C)(C)OC(=O)NCCOC(=O)c1[nH]cnc1C(=O)NCc1ccccc1
  -0.4%	x	0.2%	x	0.8%	-0.2%	0.6
> O=C(CCCCC(=O)Nc1ccc(F)cc1)Nc1ccc(F)cc1
  1.7%	9.5%	4.0%	0.7	2.1%	1.2%	-4.0
> CCN(CCN(C)C)C(=O)Cn1ncc2c1-c1cc(C)ccc1OC2
  -0.6%	-8.1%	11.5%	-3.1	u	-4.9%	-2.7
> Cn1c(=O)c(C(=O)Nc2ncccn2)c(O)c2ccccc21
  -1.5%	-4.9%	1.3%	1.4	u	u	-1.1
> COCCNC(=O)C(c1ccc(C)cc1)N(C(=O)CCC(=O)Nc1ccccn1)c1ccccc1C (stereo unspecified)
  1.1%	1.5%	-35.3%	-2.7	5.3%[15.4 µM]	0.0%	-6.0
> CCc1nnc(/N=C/c2c(O)n(-c3ccc(Cl)cn3)c(=O)c3ccccc23)s1
  -1.1%	3.6%	-1.1%	23.5	-2.7%[15.4 µM]	-2.3%	-3.8
> COCCN(Cc1cc2cccc(C)c2n2nnnc12)C(=O)C(F)(F)F
  -2.0%[38.3 µM]	-1.2%	5.6%	2.5	45.8%	0.9%	-2.9
> COC(=O)CCC(=O)OC1(C)C(=O)C=C2C=C(C3CC3)N(CC3CC3)C=C2C1=O (stereo unspecified)
  0.8%	15.9%&-14.0%	1.2%	u	x	0.0%	7.4
> CC1(NS(=O)(=O)c2ccc(Cl)s2)CCS(=O)(=O)C1 (stereo unspecified)
  0.2%	x	6.7%	x	-10.0%[15.4 µM]	-2.3%	-2.5
> COC(=O)CN1C(=O)[C@H]2[C@@H](c3ccc(C)o3)N3C(=O)CN(CCO)C(=O)[C@@]3(C)[C@H]2C1=O
  0.7%	-16.9%	10.2%	-4.8	x	0.8%	3.6
> CC(=O)N1c2ccccc2S(=O)(=O)c2ccccc21
  1.4%	x	6.2%	x	x	-0.9%	1.7
